From PubChem BioAssay
NPSR antagonist = antagonists of human neuropeptide S receptor cAMP signaling; AID 1461; Q6W5P4; CHO-NPSR cells, cAMP TR-FRET, antagonist mode; hit rate 1% among 220,000; Potency, µM (top dose mostly 38.3 µM), for the others: top-dose activity change, negative = inhibition, hits mostly inhibitors; note: % is set by controls: 0 for no effect and ±100 for the full control effect; nearly all actives have a fitted effect of over 50% in size; many of its hits are not listed in these tables
Target sequence (Q6W5P4 whole entry, looked up): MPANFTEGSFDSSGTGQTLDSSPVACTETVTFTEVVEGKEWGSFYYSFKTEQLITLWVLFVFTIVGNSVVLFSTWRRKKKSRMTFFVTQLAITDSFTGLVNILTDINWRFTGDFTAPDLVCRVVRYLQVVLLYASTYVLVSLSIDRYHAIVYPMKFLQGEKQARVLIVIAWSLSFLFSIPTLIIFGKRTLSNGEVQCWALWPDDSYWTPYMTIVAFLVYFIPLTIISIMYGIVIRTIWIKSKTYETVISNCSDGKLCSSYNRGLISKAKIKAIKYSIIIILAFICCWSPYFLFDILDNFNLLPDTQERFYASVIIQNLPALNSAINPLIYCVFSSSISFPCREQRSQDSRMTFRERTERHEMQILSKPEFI
Epigenetic reg = derepresses silenced GFP reporter in murine cells. murine LDR cells, GFP reporter derepression, 30 h. Potency, µM (top dose mostly 53.9 µM), inactives show at the highest dose GFP activation, most hits filed as activators. hit rate 0.2% among 280,000. AID 1865; note: % of control where 0% means no effect; nearly all actives have a fitted effect of over 60% in size
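Murine LDR cells bearing a silenced CMV-driven GFP reporter were exposed to compound for 30 h at 37 C. After PBS washes, GFP-positive cells (20-120 um objects) counted by laser-scanning microplate cytometry.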
IMPase Li inh = IMPase inhibition in cells with lithium potentiation | CHO-M1 cells, IP1 TR-FRET (IP-One), carbachol + lithium | Potency, µM (top dose mostly 59.4 µM), without a hit: at the top dose activity, negative = IMPase inhibition, hits mostly inhibitors | hit rate 0.35% among 210,000;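 note: IP1 builds up when IMPase is blocked and the TR-FRET signal falls; plate controls were basal vehicle for no effect and high inhibitor control for full effect; nearly all actives have a fitted effect of over 50% in size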
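Steps: plate 2000 CHO-M1 cells per well and culture 16–30 h; add compound and lithium; incubate 30 min, 37C; add d2-IP1 tracer and Eu cryptate anti-IP1 antibody in lysis buffer; read after 10 min at room temperature.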
Lamin A splicing = modulators of lamin A splicing; HeLa LMNA splicing GFP/RFP minigene ratio, 48 h; hit rate 0.01% among 200,000; Potency, µM (doses to about 46.1 µM), inactives show top-dose ratio change, negative = inhibition, usual class: inhibitors; AID 1487; active = well fitted inhibition curve with a large enough effect in the signal ratio, with a control signal flat, not every such curve was filed as active; inconclusive = small, poorly fitted or top-dose-only effect, or effect the other way, or a change in a side signal; the % refers to the signal ratio; note: % is set by controls: 0 for no effect and ±100 for the full control effect
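Read-out is the ratio of GFP to DsRed2 object intensity, acquired by 488 nm laser-scanning cytometry on HeLa lamin A-EGFP minigene reporter cells. Compound incubation 48 hrs at 37 °C in Opti-MEM with 2% FBS; DMSO 0.5% final.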
* marks the source's active call; other numbers are inactive results; ? = inconclusive; / = no result given; & = joins results of further samples; [ ] = another dose, or the depositor's remark. Unless noted, calls come from the whole dose curve; as a rule, active = well fitted curve in the direction sought with a large enough effect; inconclusive = small, poorly fitted or top-dose-only effect, or another doubt; inactive = no such curve, though single readings can be large; an effect the other way counts as inactive or inconclusive. Potency is the fitted concentration of half-maximal effect. This is a subset; the hit share may differ from the screen's.

#1 CN(C)CC[C@@H](c1ccc(Cl)cc1)c1ccccn1
#2 Cc1cc(C(=O)OCC(=O)c2ccc3c(c2)OCCO3)c(C)o1
#3 COc1ccccc1-c1nc(-c2ccccn2)no1
#4 O=C(O)CN(CCN(CC(=O)O)CC(=O)O)CC(=O)O
#5 CCOC(=O)C(CCc1ccccc1)NC(C)C(=O)N1C(C(=O)O)CC2CCCC21 (stereo not given)
Screen / compound no. | 1 | 2 | 3 | 4 | 5
IMPase Li inh | 26%&13% | 7%[38.3 µM] | -4%[38.3 µM] | 3%&-24% | -6%
Epigenetic reg | -0.2%&-0.3% | 5.2% | -4.4% | -0.8%&-1.3% | -1.7%
Lamin A splicing | -8% | 5% | -15% | ? | -10%
NPSR antagonist | 9%[46.1 µM] | -10%[46.1 µM] | 5%[46.1 µM] | / | /

#6 CC(CCc1ccccc1)NCC(O)c1ccc(O)c(C(N)=O)c1 (stereo not given)
#7 C[C@H]1[C@H](C)CC[C@]2(C(=O)O)CC[C@]3(C)C(=CC[C@@H]4[C@@]5(C)CC[C@H](O)C(C)(C)[C@@H]5CC[C@]43C)[C@H]12
#8 CCN1CCC[C@@H]1CNC(=O)c1cc(S(N)(=O)=O)ccc1OC
#9 C[C@]12C=CC(=O)C=C1CC[C@H]1[C@@H]3C[C@@H](O)[C@](O)(C(=O)CO)[C@@]3(C)C[C@H](O)[C@@]12F
#10 Nc1ncnc2c1ncn2C1OC(COP(=O)(O)O)C(O)C1O (stereo not given)
Screen / compound no. | 6 | 7 | 8 | 9 | 10
IMPase Li inh | 3%&5%&8% | / | 12% | 1%&3% | 1%
Epigenetic reg | -2.3%&-1.2%&-1.3% | -1.9% | 0.3% | 1.9%&0.0% | 12%
Lamin A splicing | ? | / | / | ? | /
NPSR antagonist | 19% | -44% | / | 2% | /

Full records from above:
Shown for `O=C(O)CN(CCN(CC(=O)O)CC(=O)O)CC(=O)O` → IMPase Li inh: 3%&-24%; Epigenetic reg: -0.8%&-1.3%; Lamin A splicing: ?; NPSR antagonist: /
Shown for `Nc1ncnc2c1ncn2C1OC(COP(=O)(O)O)C(O)C1O` (stereo not given) → IMPase Li inh: 1%; Epigenetic reg: 12%; Lamin A splicing: /; NPSR antagonist: /

The results go on:
#11 O=C(COc1ccccc1)Nc1cccc(-c2nc3cc4ccccc4cc3[nH]2)c1
#12 O=C(Nc1nc2cc3c(cc2s1)OCO3)C1=COCCO1
#13 c1ccc(-c2noc(-c3ccncc3)n2)nc1
#14 O=c1c(Cl)c(N2CCCCC2)cnn1-c1nc2ccccc2[nH]1
#15 CCOc1ccc(-c2cc(C(=O)N3CCN(c4ccccn4)CC3)c3ccccc3n2)cc1
Screen / compound no. | 11 | 12 | 13 | 14 | 15
IMPase Li inh | ? | 4% | -1%[38.3 µM] | -16%[38.3 µM] | -11%[38.3 µM]
Epigenetic reg | 9.3% | ? | 1.6% | -2.5% | 0.0%
Lamin A splicing | ? | ? | -5% | -2%[0.0737 µM] | -4%
NPSR antagonist | -17%[46.1 µM] | 3% | -8%[46.1 µM] | -14%[46.1 µM] | -8%[46.1 µM]

Some of the entries above in a different format:
Values run as follows: IMPase Li inh | Epigenetic reg | Lamin A splicing | NPSR antagonist
#12 O=C(Nc1nc2cc3c(cc2s1)OCO3)C1=COCCO1
    4% | ? | ? | 3%
#14 O=c1c(Cl)c(N2CCCCC2)cnn1-c1nc2ccccc2[nH]1
    -16%[38.3 µM] | -2.5% | -2%[0.0737 µM] | -14%[46.1 µM]

Further records.
#16 C[C@H]1OC(OC2C(O)[C@@H](O)C(OC3C(O)[C@@H](O)C(O)O[C@@H]3CO)O[C@@H]2CO)[C@H](O)C(O)C1N[C@H]1C=C(CO)[C@@H](O)[C@H](O)C1O (stereo not given in full)
#17 C#CCN(C)CCCOc1ccc(Cl)cc1Cl
#18 COC(=O)[C@@H]1[C@H]2C[C@H]3c4[nH]c5ccccc5c4CCN3C[C@H]2CC[C@@H]1O
#19 O=C(N[C@H](CO)[C@H](O)c1ccc([N+](=O)[O-])cc1)C(Cl)Cl
Screen / compound no. | 16 | 17 | 18 | 19
IMPase Li inh | -11% | 2%&12%&3% | ? | 12%&-3%
Epigenetic reg | 0.2% | -0.1% | 4.2%&0.0% | 3.8%
Lamin A splicing | -3% | -4%&3%&-10% | / | /
NPSR antagonist | / | 5%[46.1 µM] | / | /
